# 2A Renilla = Primary qHTS Assay for Foot and Mouth Disease Virus Antivirals against NCGC Sytravon and CBC Compound Libraries: Renilla Luciferase Signal. HEK cells with a luciferase reporter of 2A StopGo recoding. Potency, µM (titrated, usually from 57.5 µM), for the others: at the highest dose signal change, negative = less light. actives 0.32% (n = 120,000). AID 1745857, 2022; active means well fitted falling curve with a large enough effect; inconclusive means small, poorly fitted or top-dose-only effect; inactive means no such curve, though single readings can be large or run the other way; also: nearly all actives have a fitted effect of over 55% in size; overnight with compound
# StopGo FLuc = Primary qHTS Assay for Foot and Mouth Disease Virus Antivirals against NCGC Sytravon and CBC Compound Libraries: Firefly Luciferase Signal; actives 0.23% (n = 120,000); Potency, µM (doses to about 57.5 µM), for the others: top-dose signal change, negative = less light; HEK cells with a luciferase reporter of 2A StopGo recoding; AID 1745856, 2022; active = well fitted falling curve with a large enough effect; inconclusive = small, poorly fitted or top-dose-only effect; inactive = no such curve, though single readings can be large or run the other way; also: nearly all actives have a fitted effect of over 60% in size; overnight with compound
# * marks the source's active call; other numbers are inactive results; ? = inconclusive; [ ] = remark or other dose. % is scaled to controls: 0 for no effect and ±100 for the full control effect; potency is read from the fitted curve at half-maximal effect. Only part of the results is shown, so the mix of outcomes need not match the whole.
SMILES,2A Renilla,StopGo FLuc
C=CCN1CCN(C(=O)c2cc3ccccc3oc2=O)CC1,-7%,4%
COC(=O)C(C)NC(=O)C12CC3(C)CC(C)(CC(C)(C3)C1)C2 (centres undefined),2%,10%
COc1cc(C(=O)N2CCN(CCc3ccccn3)CC2)cc(OC)c1OC,-6%,-13%
CN(C)CCCn1c(COc2ccc3cc(Br)ccc3c2)n[nH]c1=S,105%[activator],0%
COCc1cc(C)n(CC(=O)Nc2ccc(NC(C)=O)cc2)c(=O)c1C#N,-15%,2%
CCOC(=O)c1ccccc1NC(=O)N1CCN(Cc2cc(=O)n3nc(-c4ccccc4)sc3n2)CC1,4%,-15%
CCOc1ccccc1NC(=O)CCc1c(C)nn(-c2ccc(N3CCOCC3)nn2)c1C,-13%,0%
CCOC(=O)C1CCN(c2c(C(=O)c3ccc(OC)cc3)cnc3ccccc23)CC1,-2%,?
Clc1cc(Cl)c(N/N=C/C(Br)=C/c2ccccc2)c(Cl)c1,46%[activator],101%[activator]
CCOc1ccc(-c2cc(C(=O)NCCc3ccccc3)c3c(-c4ccc(C)cc4)[nH]nc3n2)cc1,-3%,50%[activator]
Cc1nc(NC(=O)c2csc3ccccc23)sc1C(=O)N(C)C,14%,91%[activator]
Cc1ccc(C2CC3CC2C(C(=O)O)C3C(=O)O)cc1C (centres undefined),3%,-6%
O=C1CC(c2ccc3c(c2)OCO3)c2sc(C(=O)O)c(-c3ccc(F)cc3)c2N1 (centres undefined),-10%,-12%
Cc1c(C(=O)Nc2cccc(Cl)c2)oc2ccc(S(=O)(=O)N3CCOCC3)cc12,-8%,-14%
O=C(NNC(=S)Nc1ccccc1)c1ccc(-c2ccccc2)cc1,25%,165%[activator]
O=S(=O)(Cc1ccccc1)NCc1cccc(CNS(=O)(=O)Cc2ccccc2)c1,50%[activator],-3%
COc1ccc2c(c1)CC/C(=C\c1ccc(Br)o1)C2=O,28%,111%[activator]
COc1ccc2[nH]c(C)c(CCNCc3ccccc3F)c2c1,-12%,?
CCOC(=O)c1sc2cccc(F)c2c1COC(=O)c1ccoc1C,6%,7%
COc1ccc(C(=O)Nc2ccccc2SCc2cc(=O)c3cccc(C)c3[nH]2)cc1,-24%,3%
O=C(CCc1ccccc1)N(Cc1ccco1)C1CC1,39%[activator],-5%
CCOC(=O)c1c(C)[nH]c(C)c1S(=O)(=O)N1CCC(C(=O)Nc2ccc(C)cn2)CC1,18%,2%
CCc1c(C)sc2c1CCN(C(=O)Nc1ccccc1C(=O)OC)C2c1ccc(OC)cc1 (centres undefined),2%,-11%
CCOc1ccc(CNC(=O)C2CCCN(c3nn4cc(-c5ccc(F)cc5)nc4s3)C2)cc1 (centres undefined),-15%,?
COc1ccc(CCNC(=O)CN(c2ccccc2OC)S(=O)(=O)c2ccc(C)cc2)cc1,32%[activator],7%
COc1cccc(NC(=O)Cn2cc(C(=O)c3ccco3)c3ccccc32)c1,0%,-5%
COc1ccc(C2CC(=O)NC(SCC(=O)Nc3c(C)cccc3C)=C2C#N)cc1OC (centres undefined),-1%,-4%
O=C(COc1ccc(Cl)cc1Cl)c1ccc2ccccc2c1,-6%[1.06 µM],0%
CCOC(=O)c1noc2ncn(CC(=O)Nc3cccc(Cl)c3)c(=O)c12,-10%,-5%
O=S(=O)(Nc1cccc2c1CCCC2)c1ccccc1Cl,-26%,-18%
CSc1ccc(C(C)NC(=O)c2ccccc2F)cc1 (centres undefined),10%,2%
CC(C)c1ccccc1OCC(=O)NC1CCc2ccccc21 (centres undefined),69%[activator],12%
COc1cccc2cc(S(=O)(=O)N3CCCCC3)c(=O)oc12,3%,-5%
COc1cccc(NC(=O)[C@H](C)n2c(=O)[nH]c3ccccc3c2=O)c1,-11%,12%
Cc1cc2oc(C(=O)N(Cc3ccc(N(C)C)cc3)CC3CCCO3)c(C)c2cc1Cl (centres undefined),13%,-12%
Cc1cc(NC(=O)Cn2c(=O)c3c(ncn3CCC(C)C)n(Cc3ccccc3)c2=O)no1,15%,2%
O=C(NCCc1csc(-c2cccc(F)c2)n1)c1cccs1,?,?
CC(=O)c1cccc(NC(=O)Cn2cnnc2C#N)c1,-11%,-3%
Cn1cc(C(c2ccccc2)c2ccc(Cl)s2)c2ccccc21 (centres undefined),111%[activator],120%[activator]
CC(C)c1ccc(-n2nnnc2SCc2nc3ccccc3[nH]2)cc1,?,?
Cc1ccc2c(c1)NC(=O)C2(O)C(F)(F)F (centres undefined),0%,0%
Cc1cc(C(=O)N2CCC(NC(=O)C3CCCCC3)CC2)c2ccccc2n1,-10%,11%
COc1cc(OC)cc(C(=O)/C(=C\c2ccncc2)c2nc3ccccc3o2)c1,?,-38%
O=C(NC(Nc1cccc(C(F)(F)F)c1)C(=O)c1ccccc1)c1ccc(Cl)cc1 (centres undefined),0%,?
COc1ccc(OCCCn2c(=O)oc3ccc(C)cc32)cc1,4%,7%
N#Cc1cccc(NC(=O)CCCCCCCC(=O)Nc2cccc(C#N)c2)c1,-6%,18%
CCc1ccc(-n2c(=O)c3c4c(sc3n(Cc3ccccc3C#N)c2=O)CCC4)cc1,-9%,-23%
CC(C)CC(=O)Nc1cccc(-c2nc3ccccc3[nH]2)c1,150%[activator],55%[activator]
CCN(C(=O)CSc1nc2ccccc2n1CC(=O)N1CCCC(C)C1)c1ccccc1 (centres undefined),8%,-4%
CN(CC(=O)NC(=O)NCc1ccccc1)CC(=O)Nc1ccc(Cl)cc1,1%,-9%
CC(=O)c1c(C)n(-c2ccccc2)c2ccc(O)cc12,30%,21%
C#CCN1CC(N(C)CCOC(=O)c2cc(C)cc(C)c2)CS1(=O)=O (centres undefined),4%,-2%
CN(CC(=O)N(C)c1ccccc1C(=O)NCc1ccco1)Cc1nc2ccccc2s1,7%,-7%
COc1ccc(NC(=O)N2CCN(c3cc(-c4noc(C)n4)ccc3C)CC2)c(OC)c1,5%,21%
CCn1c(C(=O)N2CCCC(C(=O)N3CCN(c4ccccc4)CC3)C2)cc2sccc21 (centres undefined),?,?
COc1cccc(-c2cc(C(=O)Nc3cc(OC)c(OC)c(OC)c3)on2)c1,21%,26%
COC(=O)c1ccc(CNC(=O)c2cccc(CS(C)=O)c2)cc1 (centres undefined),0%,8%
COc1ccc(NC(=O)C2CC(c3cc(OC)c(OC)c(OC)c3)=NO2)cc1OC (centres undefined),-7%,-5%
CCc1ccccc1NC(=O)Nc1ccc2snnc2c1,-25%,0%
O=C1CC(c2ccc(Br)cc2)c2c(c3ccccc3oc2=O)O1 (centres undefined),6%,4%

# Full records, looked up by structure. Order of values: 2A Renilla | StopGo FLuc
# C#CCN1CC(N(C)CCOC(=O)c2cc(C)cc(C)c2)CS1(=O)=O (centres undefined) is listed with 4% | -2%
# CC(C)CC(=O)Nc1cccc(-c2nc3ccccc3[nH]2)c1 is listed with 150%[activator] | 55%[activator]

# The list continues.
SMILES,2A Renilla,StopGo FLuc
CCOC(=O)c1ccc(NC(=O)Cn2nc(C)n3cccc3c2=O)cc1,-15%,-5%
COc1cc(NC(=O)CSc2nc3nc(C)c(Cc4ccccc4)c(C)n3n2)cc(OC)c1,7%,2%
Cc1cccc(OCC(=O)Nc2cccc(C(=O)OCc3cc(=O)n4nc(C(C)C)sc4n3)c2)c1,-3%,7%
CCc1ccccc1NC(=O)Nc1cc(C(=O)NCc2ccc(OC)cc2)ccc1N1CCCC1,10%,1%
CCc1nc(C#N)c(NCC(c2ccccc2)N2CCOCC2)o1 (centres undefined),19%,0%
COc1cc(C(=O)Nc2ccc3oc(-c4ccccc4)nc3c2)cc(OC)c1OC,?,?
O=C1CCSc2ccc(S(=O)(=O)Nc3ccc(Cl)c(C(F)(F)F)c3)cc2N1,308%[activator],13%
O=c1c2ccccc2n(Cc2c(F)cccc2Cl)c(=O)n1Cc1ccccc1,-8%,-10%
COc1ccc(CCNC(=O)CSCc2cnn(-c3ccccc3)c2-n2cccc2)cc1OC,?,?
Cn1nc(C(C)(C)C)cc1NC(=O)c1ccc(Cl)c(Cl)c1,-14%,11%
Cc1ccc(Sc2c(C)nn(C(=O)c3ccc(Cl)cc3)c2C)cc1,-1%,30%[activator]
O=C(Nc1ccc(Cl)c(Cl)c1)c1ccc2ccccc2n1,-9%,130%[activator]
Cc1cccc(OCC(O)Cn2cnc3c2c(=O)n(C)c(=O)n3C)c1 (centres undefined),-15%,4%
Cc1c(Cl)cccc1NC(=O)COCc1cc(-c2ccc3c(c2)OCO3)on1,?,-1%
O=C(Cn1cnc2c(nc3n2CCCCC3)c1=O)Nc1ccc(F)c(Cl)c1,-14%,-5%
Brc1cccc(Oc2nc(-c3ccncc3)nc3ccccc23)c1,-5%,6%
COc1ccc2c(c1)c(=O)c(S(=O)(=O)c1ccc(Cl)cc1)cn2Cc1cc(C)ccc1C,68%[activator],-7%
CCN(Cc1ccc(OC)c(OC)c1)C(=O)c1cc2ccccc2oc1=O,45%[activator],7%
O=C(NC1CCCCCC1)c1ccc(Cn2cnc3ccccc3c2=O)cc1,0%,23%
CCNc1nc(-c2[nH]c(C)c(C(=O)OC)c2C)cs1,53%[activator],104%[activator]
Cc1ccc(C(=O)c2ccc(C)c(C)c2)cc1C,-3%,0%
O=C1Nc2ccccc2C1(O)c1c[nH]c2ccccc12 (centres undefined),8%,11%
COc1cc(NC(=O)C2=C(C)OCCS2)c(Cl)cc1C(=O)NCc1cccnc1,33%[activator],9%
CCCOC(=O)c1c(-c2ccc(C)cc2)csc1NC(=O)c1ccoc1C,-2%,3%
Cc1cc(C)c(NC(=O)CN2c3ccccc3S(=O)(=O)c3ccccc32)c(C)c1,0%,-15%
Cc1ccc(-c2nc3sccn3c2Nc2ccccc2C)cc1,2%,25%
CCC(=O)c1cn(Cc2ccccc2C#N)c2ccccc12,12%,2%
CCOc1ccc(C(=O)/C=C/c2ccccc2)cc1,-6%[1.06 µM],192%[activator]
CC1CCCCC1NC(=O)CN(C)Cc1ccc(C(F)(F)F)cc1 (centres undefined),16%,0%
CCOC(=O)N1CCc2c(sc3c2C(=O)NC(c2cccc4ccccc24)N3)C1 (centres undefined),9%,4%
N#Cc1ccc(C(=O)NC2CCC(C(F)(F)F)CC2)cc1 (centres undefined),8%,118%[activator]
CCN(CC)c1ccc(NC(=O)c2c(C)nn(-c3ccc(F)cc3)c2-n2cccc2)c(C)c1,4%,9%
COc1ccccc1OCCNc1nc(-c2cccnc2)nc2ccccc12,5%,4%
Cc1ccc(NC(=O)CSc2nc(-c3ccc(F)cc3)cc(C(F)(F)F)c2C#N)cc1,-9%,-17%
Cc1cccc(NC(=O)Cc2c[nH]c3ccccc23)c1C,2%,25%
Cc1cc(C(=O)CSc2n[nH]c(C3CC3)n2)c(C)n1C1CC1,10%,33%[activator]
N#C/C(=C\c1ccc(O)c(I)c1)c1nc2ccccc2[nH]1,3%,0%
COc1ccc(N2CC(C(=O)Nc3ccccc3C(=O)N3CCOCC3)CC2=O)cc1 (centres undefined),-5%,-7%
CCN(CC)c1nn2c(=O)c(C(=O)NCCc3ccccc3)cnc2s1,-12%,-15%
CCCCn1c(=O)[nH]c(=O)c2c1nc(CCC(=O)Nc1ccc(C)cc1)n2CC(C)C,19%,12%
O=C(NCCN1CCN(c2cccc(Cl)c2)CC1)C1COc2ccccc2C1 (centres undefined),-6%,18%
Cc1ccc(-c2ccc(=O)n(CC(=O)NCCc3ccc(Cl)cc3)n2)cc1,-11%,-17%
Cc1cc(C)n(-c2ncnc3scc(-c4ccccc4Cl)c23)n1,5%,8%
CC(C)(C)c1ccc(NC(=O)CCc2ncc(-c3ccccc3)o2)cc1,-5%,-7%
COc1cccc(CNCc2cccn2-c2nnc(N3CCN(c4ccccc4)CC3)s2)c1,3%,102%[activator]
CN1c2ccccc2-c2nc(SCC(=O)Nc3ccccc3)ncc2S1(=O)=O,-6%,-17%
COc1ccc2nc(N3CCN(C(=O)CS(=O)(=O)c4ccc(C)cc4)CC3)sc2c1,?,?
CCSc1nc2n(n1)C(c1cccc(O)c1)C1=C(CC(C)(C)CC1=O)N2 (centres undefined),14%,4%
Cc1ccc(N(CC(=O)NCCc2ccccc2C)S(=O)(=O)N(C)C)cc1,10%,-10%
O=C(CN1N=C(c2ccc(Cl)cc2)CCC1=O)NCCc1ccccc1,-9%,-20%

# Structures shown so far with an NH in an aromatic ring, in the order listed:
SMILES,2A Renilla,StopGo FLuc
CN(C)CCCn1c(COc2ccc3cc(Br)ccc3c2)n[nH]c1=S,105%[activator],0%
CCOc1ccc(-c2cc(C(=O)NCCc3ccccc3)c3c(-c4ccc(C)cc4)[nH]nc3n2)cc1,-3%,50%[activator]
COc1ccc2[nH]c(C)c(CCNCc3ccccc3F)c2c1,-12%,?
COc1ccc(C(=O)Nc2ccccc2SCc2cc(=O)c3cccc(C)c3[nH]2)cc1,-24%,3%
CCOC(=O)c1c(C)[nH]c(C)c1S(=O)(=O)N1CCC(C(=O)Nc2ccc(C)cn2)CC1,18%,2%
COc1cccc(NC(=O)[C@H](C)n2c(=O)[nH]c3ccccc3c2=O)c1,-11%,12%
CC(C)c1ccc(-n2nnnc2SCc2nc3ccccc3[nH]2)cc1,?,?
CC(C)CC(=O)Nc1cccc(-c2nc3ccccc3[nH]2)c1,150%[activator],55%[activator]
CCNc1nc(-c2[nH]c(C)c(C(=O)OC)c2C)cs1,53%[activator],104%[activator]
O=C1Nc2ccccc2C1(O)c1c[nH]c2ccccc12 (centres undefined),8%,11%
Cc1cccc(NC(=O)Cc2c[nH]c3ccccc23)c1C,2%,25%
Cc1cc(C(=O)CSc2n[nH]c(C3CC3)n2)c(C)n1C1CC1,10%,33%[activator]
N#C/C(=C\c1ccc(O)c(I)c1)c1nc2ccccc2[nH]1,3%,0%
CCCCn1c(=O)[nH]c(=O)c2c1nc(CCC(=O)Nc1ccc(C)cc1)n2CC(C)C,19%,12%

# Source: PubChem BioAssay (National Center for Advancing Translational Sciences (NCATS))
